# fixLJ activator = B. multivorans fixK reporter activation. B. multivorans fixK-promoter GFP reporter, 18 h; hits give high values. AID 1918990. hit rate 0.3% among 29,000. z-score (concentration not given with the values);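 active = replicate mean overnight rise in green fluorescent reporter signal, 3 or more SD over negative controls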;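 note: score is relative to vehicle wells of the plate; 300 nL library stock went into each well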
# * marks the source's active call; other numbers are inactive results; & = joins results of further samples.
SMILES,fixLJ activator
O=C(c1cccc2ccccc12)N1CCN(CCO)C2CS(=O)(=O)CC21 (stereo not drawn),-0.51
COc1ccc(-n2nc(C(=O)N3CCCCC3)c3c4ccccc4n(C)c3c2=O)cc1Cl,0.58
CC1CCCN(Cc2c(O)ccc3c(=O)c(-c4ccc(Cl)cc4)c(C(F)(F)F)oc23)C1 (stereo not drawn),-1.7
Cc1cnn(C2(C(=O)O)CCN(Cc3nc4ccccc4nc3C)CC2)c1,1.97
Cc1cc(F)ccc1NCc1ccccc1-c1nnc(-c2ccccc2Cl)o1,0.29
Cc1cc(N(C)CCc2c(C)n[nH]c2C)n2nc(C)c(C)c2n1,0.11
COc1cc2c(cc1OC)C1(CCN(C(=O)c3ccc(C)nc3C)CC1)OCC2,0.58
CCCCC(=O)N1CCC(c2nnc(CN3CCCCC3)n2C)CC1,0.36
CCOC(=O)c1nnc2c(-c3ccc(OC)cc3)c(C)nn2c1N,0.23
Cc1ccc(NC(=O)/C=C/c2ccc(C)o2)c(C)c1,-2.52
CCOC(=O)c1ccc(N2C(=O)c3n[nH]c(C)c3C2c2ccccc2OC)cc1 (stereo not drawn),-0.72
CCn1cc(/C=C(\NC(=O)c2cc(OC)c(OC)c(OC)c2)C(=O)NCCCn2ccnc2)c2ccccc21,-1.42
COC(=O)c1cc2oc3ccccc3c2n1Cc1c(F)cccc1Cl,0.56
Cc1cc(Cl)cc(C(=O)N2CC(O)C(Cc3cc(C)[nH]n3)C2)c1 (stereo not drawn),-0.78
Cc1cccc(C(=O)Nc2ccc(-c3nc4cc(C(C)C)ccc4o3)cc2)c1,-0.7
O=C(NCc1nc(Cc2ccccc2)no1)C1(c2ccc(F)cc2)CC1,1.33
CCOC(=O)c1ccccc1NC(=O)CN1C(=O)CC(c2ccco2)Sc2ccccc21 (stereo not drawn),-0.51
COc1ccccc1C(=O)Nc1c(C(=O)Nc2ccc(C)cc2)oc2ccccc12,-1.29
O=C1CC(c2nc3ccccc3n2CCCOc2ccccc2)CN1c1ccc(F)cc1 (stereo not drawn),-1.62
Cc1ccc(NC(c2ccc(Cl)cc2)c2nnc(-c3cccc(F)c3)o2)cc1C (stereo not drawn),-0.1
COc1ccc(-c2csc3nc(-c4ccc(F)cc4)oc(=O)c23)cc1OC,-0.91
COc1ccccc1NC(=O)c1cc2c(n(-c3ccc(C)cc3)c1=O)CC(C)(C)CC2=O,-3.58
Cc1ccc2c(=O)cc(C(=O)Nc3sc4c(c3C(=O)NCc3cccnc3)CCCC4)oc2c1C,0.48
Cc1ccc(C)c(OCCn2cc(C(=O)c3cccs3)c3ccccc32)c1,1.43
Cc1oc(-c2cccc(Cl)c2)nc1CN1CCC(C(=O)NC(C)C)CC1,-1.74
Nc1c(C(=O)Nc2ccccc2)nnn1Cc1ccc(F)cc1Cl,0.75
CCOc1ccc2nc(N3CCCC(C(=O)NCc4ccccc4OC)C3)sc2c1 (stereo not drawn),-1.45
CSCc1nc(CCNC(=O)c2c[nH]c(=O)cn2)cs1,0.04
Cc1nn(Cc2nnc3n2-c2ccccc2COC3)c(C)c1C,-2.2
CCCCCCc1cc2cc(-c3nnc(-c4cccc(Cl)c4)o3)c(=O)oc2cc1O,0.2
Cc1c(NC(=O)c2cccc3c(Cl)cccc23)cccc1-c1nc2ccccc2o1,-1.2
Cc1ccc(NC(=O)c2nnn(Cc3ccccc3)c2N)cc1C,-1.71
COc1ccccc1CNC(=O)CCC1N=C2c3ccccc3N=C(SCc3ccc(C)cc3C)N2C1=O (stereo not drawn),2.03
CCOc1ccccc1NC(=O)Cn1cnc2c1c(=O)n(C)c(=O)n2C,-0.92
COc1nnc(-c2ccc(N3CCCCC3)c(NC(=O)c3ccccc3Cl)c2)c2ccccc12,0.65
COCCNC(=O)CCn1c(=O)[nH]c2cc(OC)c(OC)cc2c1=O,0.8
COCCNC(=O)CN1C(=O)COc2ccc(S(=O)(=O)N3CCCC3)cc21,0.2
CC(=O)Nc1ccc2nc(CN3CCN(CCn4cncn4)CC3)ccc2c1,-0.69
Fc1ccc(-c2cc3ncc4c(n3n2)-c2cc(Cl)ccc2OC4)cc1,0.85
CCc1ccc(CN(Cc2ccco2)C(=O)c2ccccc2Cl)cc1,1.11
CC1=C(C#N)C(NC(=O)c2ccccc2)(C(F)(F)F)C(=O)N1 (stereo not drawn),-1.32
CC1(C)CC(CCNC(=O)N2CCCNC(=O)C2)(c2ccccc2)CCO1 (stereo not drawn),-0.63
CCc1ccc(C(=O)c2cn(CC(=O)Nc3ccc(F)c(F)c3)c3cc(OC)c(OC)cc3c2=O)cc1,0.26
Cc1ccc2nc(NC(=O)c3cc(=O)c4cc(C)c(C)cc4o3)sc2c1,-2.44
Cc1cccc(C)c1OCCn1c(CCNC(=O)C2CCCCC2)nc2ccccc21,-1.23
CC(C)NC(=O)C1CCN(C(=O)c2cc3sccc3n2Cc2ccc(Cl)cc2)CC1,-2.16
CCOc1ccc(S(=O)(=O)N(CC(=O)NCc2ccccc2OC)c2ccccc2)cc1,-2.46
CCc1c(C)nn(CC(=O)N2CCC3(CC2)c2nc[nH]c2CCN3C)c1C,-0.24
Cc1cccc(-n2c3nc(=O)[nH]c(=O)c-3cc3c(Cl)cccc32)c1C,-0.39
COc1ccccc1-c1c(C)nn2c(C(F)(F)F)cc(-c3ccccc3)nc12,-0.69

# Shown as tab-separated lines: entries from further up
Structure	fixLJ activator
CC1(C)CC(CCNC(=O)N2CCCNC(=O)C2)(c2ccccc2)CCO1 (stereo not drawn)	-0.63
CCc1ccc(C(=O)c2cn(CC(=O)Nc3ccc(F)c(F)c3)c3cc(OC)c(OC)cc3c2=O)cc1	0.26
Cc1ccc2nc(NC(=O)c3cc(=O)c4cc(C)c(C)cc4o3)sc2c1	-2.44
Cc1cccc(C)c1OCCn1c(CCNC(=O)C2CCCCC2)nc2ccccc21	-1.23
CC(C)NC(=O)C1CCN(C(=O)c2cc3sccc3n2Cc2ccc(Cl)cc2)CC1	-2.16

# The listing continues.
SMILES,fixLJ activator
CN1C(C(=O)Nc2ccccn2)=C(O)c2ccccc2S1(=O)=O,-1.47&-1.45
CC(C)c1ccc(NC(=O)CN(C)S(=O)(=O)c2ccc3c(c2)n(C)c(=O)c(=O)n3C)cc1,-0.47
COc1ccc(CNC(=O)c2cc(-c3ccc(Br)s3)nc3ccccc23)cc1,-0.62
N#C/C(=C\c1ccc(-c2ccc(C(=O)O)cc2)o1)C(=O)Nc1ccccc1C(=O)O,1.15
CCc1ccc(CNC(=O)c2ccc(CS(=O)c3ccc(Br)cc3)o2)cc1 (stereo not drawn),-1.79
CCOc1ccc(OCC)c(-n2cnnn2)c1,-0.59
Cc1cccc(C(=O)NCCc2nc3ccccc3n2Cc2ccccc2Cl)c1,-0.39
Clc1cccc(N2CCN(c3ncnc4c3nc3n4CCCC3)CC2)c1,-2.63
CCN1C[C@@]2(COC)C3[C@@H](OC)[C@H]4[C@@H]1[C@]3(C(OC)C[C@H]2O)C1C[C@@]2(O)[C@H](OC(=O)c3ccccc3)C1[C@]4(OC(C)=O)[C@@H](O)[C@@H]2OC (stereo partly drawn),-2.06
CCOc1ccc(NC(=O)Cn2c(=O)n(CCCCC(=O)NCCc3ccc(Cl)cc3)c(=O)c3ccccc32)cc1,-1.55
N#Cc1cccc(NC(=O)CSc2nc3c(cc2C#N)N2CCC3CC2)c1,-1.39
Cc1ccc(-n2nc(C)c3c(C)c(CCC(=O)NCc4ccccc4Cl)c(C)nc32)cc1C,-0.22
COc1cccc(-c2nc3c(c(C)nn3-c3ccccc3)c3cc(OC)c(OC)cc23)c1,-2.03
CCCOc1ccc(C2=NC(c3ccncc3)=Nc3ccc(C)cc3N2)cc1,0.08
Cc1cc(NC(=O)CN(c2cccc(C)c2C)S(=O)(=O)c2ccccc2)ccc1Br,0.76
Cn1c(Cn2ccnc2)nnc1C1CCCN(C(=O)NCc2ccccc2)C1 (stereo not drawn),-1.88
CC(=O)N1c2c(cc(Br)cc2S(=O)(=O)N2CCN(c3cccc(Cl)c3)CC2)CC1C (stereo not drawn),0.19
CCn1nc(C)cc1C(=O)N1CC(O)C(Cc2cc(C)[nH]n2)C1 (stereo not drawn),0.12
Cc1ccc(CN2COc3ccc4c(-c5ccccc5)cc(=O)oc4c3C2)cc1,-0.47
N=c1n(CCN2CCCCC2)c2ccccc2n1CC(O)COc1ccccc1 (stereo not drawn),-0.25

# Six entries out of the list, sorted by molecular weight, falling.
SMILES,fixLJ activator
Cc1ccc(-n2nc(C)c3c(C)c(CCC(=O)NCc4ccccc4Cl)c(C)nc32)cc1C,-0.22
COc1cccc(-c2nc3c(c(C)nn3-c3ccccc3)c3cc(OC)c(OC)cc23)c1,-2.03
N=c1n(CCN2CCCCC2)c2ccccc2n1CC(O)COc1ccccc1 (stereo not drawn),-0.25
Cc1ccc(CN2COc3ccc4c(-c5ccccc5)cc(=O)oc4c3C2)cc1,-0.47
Cn1c(Cn2ccnc2)nnc1C1CCCN(C(=O)NCc2ccccc2)C1 (stereo not drawn),-1.88
N#Cc1cccc(NC(=O)CSc2nc3c(cc2C#N)N2CCC3CC2)c1,-1.39

# Additional structures
SMILES,fixLJ activator
CCOc1ccc(-n2c(Cc3ccccc3)nnc2SCc2nc(-c3ccccc3C)no2)cc1,-0.08
O=C(CSc1nnc(-c2ccccc2Br)n1-c1ccccc1)c1ccc(F)cc1,-1.12
CCn1cc(C(=O)N2CCN(c3ccc(OC)cc3)CC2)c(=O)c2cc(S(=O)(=O)N(C)C3CCCCC3)ccc21,0.61
OC1CCCN(c2ccc(-c3nc(CCCc4ccccc4)no3)cn2)C1 (stereo not drawn),0.23
COc1cccc(CCC(=O)NCc2c(C)cc(C)nc2OC)c1,-0.16
COc1ccc(N(CC(=O)NCc2ccccc2Cl)S(=O)(=O)c2c(C)[nH]c(=O)[nH]c2=O)cc1,0.08
Cc1nc2sc(C(=O)NCc3ccc(Cl)cc3)c(NC(=O)c3ccccc3)c2c(C)c1C,-5.84
CCc1ccccc1NC(=O)Cn1c(=O)n(CCCS(=O)(=O)C2CCCCC2)c(=O)c2ccccc21,-1.95
CCOC(=O)c1cccc(NC(=O)COc2ccc3c(C)cc(=O)oc3c2)c1,-0.33
CCn1c(=N)c(C(=O)NC2CCCC2)cc2c(=O)n3cc(C)ccc3nc21,-1.69
Cc1cc2oc(C(=O)Nc3ccc(S(=O)(=O)Nc4onc(C)c4C)cc3)cc(=O)c2cc1C,0.09
Nc1ncnc2c1ncn2C1O[C@H](COP(=O)(O)O)[C@@H](O)[C@H]1O (stereo partly drawn),-1.39
CC1CCN(C(=O)c2c(NC(=O)c3ccccc3F)sc3c2CCC(C(C)(C)C)C3)CC1 (stereo not drawn),0.06
CCC(C)C(=O)Nc1cccc(NC(=O)CN(C)Cc2cccnc2)c1C (stereo not drawn),0.75
Cc1cccn2c(=O)c(C(=O)NCc3ccc(F)cc3)c(O)nc12,0.36
O=C(NCc1nc(-c2ccncc2)n[nH]1)C1CCCCN1C(=O)c1ccccc1 (stereo not drawn),0.7
CCN(CCCNC(=O)CSc1cc(=O)n(C)c2ccccc12)c1ccccc1,-0.57
CCN(CC)S(=O)(=O)c1ccc2c(c1)c(=O)c(C(=O)N1CCN(c3cc(C)ccc3C)CC1)cn2C,-0.41
Cc1cccc(N2CCN(C(=O)CN3C(=O)COc4ccc(S(=O)(=O)N5CCCC5)cc43)CC2C)c1 (stereo not drawn),-1.35
CCOc1cccc(C(=O)NC2CC(c3nnc(CO)n3C)C2)c1 (stereo not drawn),0
COC(=O)c1ccc(NC(=O)CN(Cc2ccccc2)S(=O)(=O)c2ccc(Cl)cc2)cc1,-0.39
CCN(CCc1nc2ccc(F)cc2[nH]1)C(=O)c1c(C)noc1C,-0.22
CCNc1nc(OC)nc(Oc2ccc(=O)[nH]n2)n1,-2.14
Cc1c(CNC2CCC(C)CC2)c(C(=O)O)c(C)n1Cc1ccccc1F (stereo not drawn),-1.34
O=C(Nc1ccc2oc(-c3ccccc3F)nc2c1)c1ccccc1Cl,-0.62
COC(=O)Nc1nc2ccc(C(=O)c3ccc(F)cc3)cc2[nH]1,-0.79
CCCc1nn2c(=O)cc(COc3ccc(/C=C(\C#N)C(=O)Nc4ccc(F)cc4)cc3)nc2s1,-2.37
CCN(CC)c1nc2c(S(=O)(=O)c3ccccc3)nnn2c2ccc(Cl)cc12,0.22
O=C(NCc1ccccn1)c1nn(-c2ccccc2Cl)nc1CO,-1.84
CCCCC[C@H](O)/C=C/[C@H]1[C@H](O)CC(=O)[C@@H]1C/C=C\CCCC(=O)O,-1.96

# For convenience, 2 of the compounds above.
SMILES,fixLJ activator
COc1cc2c(cc1OC)C1(CCN(C(=O)c3ccc(C)nc3C)CC1)OCC2,0.58
CCCCC(=O)N1CCC(c2nnc(CN3CCCCC3)n2C)CC1,0.36

# (cont.)
SMILES,fixLJ activator
CCOC(=O)c1c(NC(=O)c2cc(=O)c3cc(C)cc(C)c3o2)sc(C)c1C,-1.75
CC(C)Sc1ccccc1NC(=O)NCc1noc(C2CCCO2)n1 (stereo not drawn),-1.53
CC1CCN(C(=O)CSc2c3c(nc4ccc(Cl)cc24)CCCC3)CC1,-0.53
CCSc1ncc(Cl)c(C(=O)Nc2nc3ccc(S(C)(=O)=O)cc3s2)n1,-0.23
COc1ccc(-c2c(C)nn3c(-c4ccccc4)cc(-c4ccccc4)nc23)cc1,0.96
COc1ccc(CC(=O)N2CC(=O)Nc3ccc(Br)cc3C2c2ccc(F)cc2)cc1 (stereo not drawn),-0.32
Cc1ccc(Cn2c(C)c3cnn(CC(=O)N4CCN(c5ccc(F)cc5)CC4)c(=O)c3c2C)cc1,0.85
COc1ccc(OCC(O)Cn2c(=N)n(CCN3CCCCC3)c3ccccc32)cc1 (stereo not drawn),-2.4
Cn1c(=O)n(C)c2cc(N3CCOCC3)c(NS(=O)(=O)c3ccc(C(C)(C)C)cc3)cc21,-1.73
CNC(=O)CCN(C)Cc1nc(-c2ccc(OC)c3ccccc23)oc1C,-3.28
CCOc1ccc(-c2nc3c(c(SCC(=O)N4CCCCC4)n2)Cc2cccc(OC)c2O3)cc1,-0.83
CCC(=O)N1CCc2[nH]cnc2C12CCN(C(=O)c1cc(C)no1)CC2,0.92
COc1ccccc1CNC(=O)c1ccc2c(c1)N(Cc1ccc(C)cc1)CCS2,0.36

# Compound activity as filed in PubChem.

# An excerpt; count on the stated rates, not on these rows.
